Compound activity as filed in PubChem.
Lassa entry inh – inhibitors of Lassa virus binding or cell entry. Potency, µM (series often up to 37.9 µM), without a hit: at the top dose activity change, negative = inhibition, most hits filed as inhibitors. 300,000 compounds, 1.2% hits. Lassa virus pseudotype entry inhibition, cell reporter; control for the full effect not named in the record; active means well fitted inhibition curve with a large enough effect; inconclusive means small, poorly fitted or top-dose-only effect, or effect the other way; inactive means flat fitted curve, though single readings scatter; tested in HEK293 cells; note: % is set by controls: 0 for no effect and ±100 for the full control effect; nearly all actives have a fitted effect of over 50% in size; luciferase read-out
Marburg entry inh – Marburg virus entry inhibition | Potency, µM (doses to about 37.8 µM), for inactives: at the top dose activity change, negative = inhibition, hits mostly inhibitors | Marburg virus pseudotyped entry inhibition, cell reporter; control for the full effect not named in the record; about a third of the inactives were read at about 46 µM | 300,000 compounds, 1.8% hits; active = well fitted inhibition curve with a large enough effect; inconclusive = small, poorly fitted or top-dose-only effect, or effect the other way; inactive = flat fitted curve, though single readings scatter; tested in HEK293 cells; about a fifth of its hits are not listed in these tables; note: % is set by controls: 0 for no effect and ±100 for the full control effect; luciferase read-out
Cruzain Triton – cruzain (T. cruzi) inhibition with detergent | P25779 | purified cruzain, Z-FR-AMC fluorescence, 0.01% Triton | Potency, µM, for inactives: max response, negative = inhibition, actives largely listed as inhibitors | 200,000 compounds, 0.43% hits; active = well fitted curve in the direction sought with a large enough effect; inconclusive = small, poorly fitted or top-dose-only effect, or another doubt; inactive = no such curve, though single readings can be large; an effect the other way counts as inactive or inconclusive;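 note: plate controls were neutral wells for no effect and buffer without enzyme for full effect; nearly all actives have a fitted effect of over 40% in size; top concentration of the series not given in the record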
Target sequence (P25779 123-467 limits assumed): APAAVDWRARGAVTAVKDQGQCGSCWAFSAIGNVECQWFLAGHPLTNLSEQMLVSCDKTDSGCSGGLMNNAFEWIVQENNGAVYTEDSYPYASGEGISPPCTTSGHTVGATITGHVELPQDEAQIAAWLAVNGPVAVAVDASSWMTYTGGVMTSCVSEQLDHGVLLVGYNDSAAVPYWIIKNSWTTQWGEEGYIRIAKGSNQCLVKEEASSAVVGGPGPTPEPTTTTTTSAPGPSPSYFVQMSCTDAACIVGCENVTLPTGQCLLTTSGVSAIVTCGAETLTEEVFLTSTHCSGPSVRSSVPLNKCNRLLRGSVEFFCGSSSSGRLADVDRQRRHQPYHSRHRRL
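Steps: dispense cruzain (1.5 nM final) in acetate buffer pH 5.5 with DTT and 0.01% Triton X-100; pin-transfer compounds; incubate 15 min RT; add Z-FR-AMC (2 uM final); read fluorescence every 30 s, using the 60 s intensity change.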
RE007 growth inh – less growth of the S. pombe RE007 Vpr strain; 360,000 compounds, 0.21% hits; S. pombe RE007 Vpr strain, BacTiter-Glo ATP luminescence, 24 h; control for the full effect not named in the record; AID 651644; Potency, µM (series often up to 92.2 µM), without a hit: at the top dose activity change, negative = less growth; active = well fitted falling curve with a large enough effect; inconclusive = small, poorly fitted or top-dose-only effect; inactive = no such curve, though single readings can be large or run the other way;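 note: % is set by controls: 0 for no effect and ±100 for the full control effect; nearly all actives have a fitted effect of over 50% in size; the assay follows cell death caused by Vpr and the record does not say whether a fall means rescue or toxicity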
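Fission yeast RE007 carrying one integrated HIV-1 vpr copy, seeded at OD 0.01 in PMG+AL medium with 23 nL pinned compound. Grown 24 h at 30 degrees; viability read by BacTiter-Glo luminescence after 5 min.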
Cruzain noTriton – blocks cruzain activity in detergent-free assay; purified cruzain, Z-FR-AMC fluorescence, no detergent; 200,000 compounds, 2.3% hits; Potency, µM, without a hit: max response, negative = inhibition, actives largely listed as inhibitors; active = well fitted curve in the direction sought with a large enough effect; inconclusive = small, poorly fitted or top-dose-only effect, or another doubt; inactive = no such curve, though single readings can be large; an effect the other way counts as inactive or inconclusive;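 note: plate controls were enzyme without inhibitor for no effect and buffer without enzyme for full effect; nearly all actives have a fitted effect of over 40% in size; top concentration of the series not given in the record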
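Detergent-free condition (0.00005% Triton X-100) in acetate buffer pH 5.5 with DTT. 1.5 nM enzyme and compound were pre-mixed 15 min, then 2 uM Z-FR-AMC substrate added; reaction progress from fluorescence change between first and third reads (60 s).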
2A StopGo – lowers the luciferase signal of an FMDV 2A StopGo reporter | human cells with a luciferase reporter of 2A StopGo recoding; control for the full effect not named in the record | Potency, µM (doses to about 57.9 µM), for inactives: at the highest dose signal change, negative = less light | 410,000 compounds, 1.2% hits | AID 1159524; active = well fitted falling curve with a large enough effect; inconclusive = small, poorly fitted or top-dose-only effect; inactive = no such curve, though single readings can be large or run the other way; tested in HEK293T cells; note: % is set by controls: 0 for no effect and ±100 for the full control effect; nearly all actives have a fitted effect of over 45% in size; luciferase light after 4 h
NS1 inh – blocks influenza NS1 protein function. S. cerevisiae slowed by influenza A NS1, growth recovery by OD600. Potency, µM (titrated, usually from 46.1 µM), inactives show at the highest dose activity, positive = more growth. 270,000 compounds, 0.4% hits. AID 2326; note: actives are rising curves; nearly all actives have a fitted effect of over 50% in size
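Recovery from NS1-induced slow growth read by OD600 in budding yeast switched to galactose assay medium (pH 6.0, -URA) at 1:100 dilution. Compound 23 nl per well; the matching strain lacking NS1 serves as control.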
SARS PLpro yeast – inhibitors of SARS-CoV papain-like protease in yeast; Potency, µM (top dose mostly 32.9 µM), without a hit: at the top dose activity, positive = growth rescue; S. cerevisiae expressing SARS-CoV PLpro, growth rescue; control for the full effect not named in the record; 330,000 compounds, 0.19% hits; AID 485353; note: 0% is about no effect; nearly all actives have a fitted effect of over 55% in size; growth read by luminescence after 48 h
Active calls of the source: *; u = inconclusive; x = not tested or not shown; & = joins results of further samples; [ ] = remark or other dose. Unless noted, calls come from the whole dose curve; as a rule, active means well fitted rising curve with a large enough effect; inconclusive means small, poorly fitted or top-dose-only effect; inactive means no such curve, though single readings can be large or run the other way. Potency is the fitted concentration of half-maximal effect.

SMILES	Lassa entry inh	Marburg entry inh	Cruzain Triton	RE007 growth inh	Cruzain noTriton	2A StopGo	NS1 inh	SARS PLpro yeast
COc1ccc(-n2nc(C(=O)NCC(=O)NCC3COc4ccccc4O3)c3ccccc3c2=O)c(OC)c1 (stereo not given)	-11%[46.1 µM]	u	x	-2%	x	-7%	9%	5%
Brc1ccc(-c2csc3ncnc(-n4nnc5ccccc54)c23)cc1	u	13µM*	-1.3%	-11%	u	u	u	1%
Cc1ccccc1S(=O)(=O)Cc1ccc(C(=O)NCCCN2CCC(C)CC2)o1	28%[46.1 µM]	-19%[46.1 µM]	x	9%	x	-22%	-3%	-4%
O=C(NCCCNC(=O)c1c(Cl)cccc1Cl)c1c(Cl)cccc1Cl	6%[46.1 µM]	-11%[46.1 µM]	x	10%	x	-9%	x	x
O=C(COc1ccc(C(=O)NCCN2CCOCC2)cc1)Nc1cccc(C(F)(F)F)c1	3%	-3%	x	22%	x	u	x	0%
COc1cc(C(=O)N(Cc2ccccc2)c2cccc(C)c2)ccc1OC(F)F	-15%	u	x	4%	x	8%	-34%	-1%
CC(C)N(Cc1ccccc1)C(=O)COC(=O)c1ccc2c(c1)OCCO2	-5%	-15%	-3.8%	0%	4%	-8%	-10%	1%
COc1ccc(-c2cc(=NCC(=O)O)c3ccccc3o2)cc1	x	x	x	-27%	x	13%	-10%	-4%
CCOC(=O)C(Cc1ccc(NC(=O)/C(=C\c2ccccc2)NC(=O)c2ccccc2)cc1)N1C(=O)c2ccccc2C1=O (stereo not given)	-8%	13%	-5.5%	3%	u	-18%	15%	11%
CC1CN(c2oc(COc3ccc(Cl)cc3Cl)nc2C#N)CC(C)O1 (stereo not given)	u	u	-5.1%	2%	u	u	-99%	-41%
O=C(NC(=S)NC1CCC(O)CC1)c1ccco1 (stereo not given)	18%	16%	x	11%	x	21%	x	-6%
CCCC(c1nnnn1CCOC)N1CCN(c2nc3ccccc3s2)CC1 (stereo not given)	-2%	19%[46.1 µM]	x	5%	x	u	x	-3%
CC(C)CNC(=O)NC(=O)COC(=O)c1cc(F)cc(F)c1	3%	2%	-3.7%	4%	-20%	-13%	-5%	-1%
COC(=O)c1nn(Cc2ccccc2)c(=O)c2ccccc12	4%	3%	-4.8%	42%	12%	-5%	2%	6%
O=c1oc2ccccc2c(Nc2cccc3ccccc23)c1[N+](=O)[O-]	8%	u	-13%	11%	-22%	0%	-97%	-27%
CCOC(=O)c1cnn(-c2ccc([N+](=O)[O-])cc2)c1N	x	x	x	4%	x	53%[activator]	-6%	-1%
C=CCNC(=O)c1ccc2c(=O)n(Cc3ccccc3OC)c(=S)[nH]c2c1	x	x	x	-1%	x	-24%	1%	-2%
CCCOc1ccc(/C=N/Nc2cccc([N+](=O)[O-])c2)c(O)c1	u	u	-4.9%	36%	u	6%	-31%	-15%
CCCCCCC(Cl)(Cn1ccnc1)c1ccccc1 (stereo not given)	-1%	3%	x	-12%	x	u	x	x
CCCNC(=O)CCCN1C(=O)c2ccccc2Sc2ncccc21	x	x	x	-7%	x	-19%	1%	2%
Cc1cnc(C(=O)OCC(=O)Nc2cc(S(=O)(=O)N3CCCCC3)ccc2Cl)cn1	0%	-8%[46.1 µM]	-3.0%	-2%	-2%	-14%	-6%	-13%
CCC(C(=O)NC1CCCC1)N(C(=O)Cn1nnc(-c2ccc(C)o2)n1)c1ccc(F)cc1 (stereo not given)	-19%	u	x	-12%	x	-9%	2%	7%
Cc1ccc(CN2CCC(CNC(=O)c3cc4ccc5cccnc5c4[nH]3)CC2)cc1	u	x	-4.8%	x	-5%	-29%	x	x
CCOC(=O)c1sc(NC(=O)c2cccc(S(=O)(=O)N3CCN(C)CC3)c2)cc1C	2%	u	3.6%	-7%	-2%	18%	-5%	6%
O=C(Nc1ccccc1-c1ccccc1NC(=O)c1ccco1)c1ccco1	-16%	-11%	0.6%	-3%	1%	-16%	-16%	9%
CC(=O)N1c2ccc(S(=O)(=O)NCC3CCC(C(=O)NC4CCC(C)CC4)CC3)cc2CC1C (stereo not given)	u	1%[46.1 µM]	x	-6%	x	u	-8%	1%
CN(CCc1ccccn1)C(=O)c1cc(COc2ccc(F)cc2F)on1	0%	-4%	x	-2%	x	6%	-4%	7%
Cc1ccc(-c2[nH]ncc2/C=N/n2c(C)nc3ccccc3c2=O)cc1	-12%	0%[14.2 µM]	x	7%	x	-7%	-2%	-1%
Oc1ccc2ccccc2c1C=Nc1cc(C(F)(F)F)ccc1N1CCCC1	-12%	-23%	-2.8%	-14%	-6%	-18%	0%	-15%
Nn1c(C2COc3ccccc3O2)n[nH]c1=S (stereo not given)	x	x	x	-16%	x	2%	5%	-2%
N#Cc1ccc(NC(=O)Nc2ccc(Oc3ccc(NC(=O)Nc4ccc(C#N)cc4)cc3)cc2)cc1	u	u	x	4%	x	0%	18%	3%
CCOc1ccc(NC(=O)c2ccc(NS(=O)(=O)c3cccs3)cc2)cc1	1%	17%[46.1 µM]	x	2%	x	-6%	7%	5%
Cc1ccc(NC(=O)C(C)SCc2nc3sc(C)c(C)c3c(=O)[nH]2)nc1 (stereo not given)	-5%	-15%[46.1 µM]	x	-19%	x	18%	x	x
Cc1nc2c(Br)cc(Br)cc2cc1O	u	21%	-3.0%	u	-4%	u	-230%	-39%
Cc1n[nH]c(=O)nc1N1CCN(c2ccccc2)CC1	8%	5%[46.1 µM]	1.8%	4%	-1%	-11%	4%	3%
COc1ccccc1OCc1ccc(C(=O)NCC2CCCO2)o1 (stereo not given)	-4%	1%	-1.7%	-14%	-2%	2%	-39%	6%
FC(F)Oc1ccc(-n2cc(-c3ccc(Cl)cc3)[n+]3c2CCCCC3)cc1	0%	2%	x	0%	x	-15%	-2%	-1%
CCn1c2ccccc2c2cc(NC(=O)COc3ccc(OC)cc3)ccc21	-12%	u	-8.8%	11%	u	-19%	-5%	8%
CCc1ccc(CN(C)C(=O)C2CCC(=O)N(Cc3cccc(OC)c3)C2)nc1 (stereo not given)	x	x	x	-6%	x	-21%	4%	6%
c1ccc2[nH]c(NCCCN3CCOCC3)nc2c1	3%	u	-20%	2%	-29%	11%	-14%	1%
O=C(NCCCN1CCOCC1)C(=O)NCC1CCCO1 (stereo not given)	-2%	u	-0.3%	1%	-1%	-18%	3%	7%
Cc1oc(-c2ccc(Cl)cc2)cc1C(=O)/C(C#N)=C/Nc1ccccc1	-1%[46.1 µM]	5%[46.1 µM]	x	4%	x	3%	2%	0%
O=C(COC(=O)c1ccc(Cl)nc1)NCc1cccs1	-8%[46.1 µM]	18%[46.1 µM]	x	6%	x	-8%	5%	-1%
O=c1cc(CSc2nnc(-c3cccnc3)n2-c2ccccc2F)nc2sccn12	-2%	-3%	-1.9%	-2%	-3%	x	27%	2%
CCCCN(CC)Cc1ccc(CNS(=O)(=O)c2cc3c(cc2Cl)NC(=O)CO3)o1	3%[46.1 µM]	x	1.2%	x	-2%	12%	x	x
Cc1cc(C(=O)NNC(=O)CCCOc2ccccc2)c(C)o1	1%	-20%[46.1 µM]	x	4%	x	13%	x	0%
COC(=O)Cn1c(O)c(N=NC(=O)c2ccc3c(c2)OCO3)c2ccccc21	5%[46.1 µM]	u	x	-8%	x	9%	0%	-1%
Cc1cc2c(n1-c1ccc(Cl)cc1)CC(C)(C)CC2=O	-31%[14.3 µM]	-3%	-1.5%	-9%	-5%	-19%	-72%	-28%
Cc1cc(NC(=O)c2sc3ccccc3c2O)no1	x	x	x	-9%	x	-27%	-102%	-9%
Cc1ccc(OCc2nnc(SCc3cc(=O)[nH]c4ccccc34)n2-c2ccccc2)cc1	u	u	-6.9%	5%	-26%	0%	10%	7%

More entries.
SMILES	Lassa entry inh	Marburg entry inh	Cruzain Triton	RE007 growth inh	Cruzain noTriton	2A StopGo	NS1 inh	SARS PLpro yeast
Cc1ccc(/C=N/NC(=O)CN2CCN(Cc3ccccc3)CC2)o1	x	x	x	17%	x	-12%	0%	-1%
Cc1ccc2cccc(Oc3ncnc4scc(-c5ccc(Cl)cc5)c34)c2n1	-24%	-28%	-4.5%	-13%	u	u	11%	-24%
Cc1cc(C)c(NC(=O)CCS(=O)(=O)c2cc3c(cc2Cl)NC(=O)CO3)c(C)c1	-1%[46.1 µM]	x	-2.1%	x	-1%	-26%	x	x
O=S(=O)(Nc1cc(Cl)cc(Cl)c1)N1CCOCC1	x	x	x	1%	x	4%	-9%	1%
O=C(CN1C(=O)C2C3C=CC(C3)C2C1=O)Nc1cccc(S(=O)(=O)N2CCCC2)c1 (stereo not given)	18%	11%	-2.1%	x	-1%	-5%	-6%	8%
CCc1ccccc1C1C(=O)c2ccccc2C1=O	20%[46.1 µM]	16%[46.1 µM]	x	-10%	x	-22%	x	x
Cc1ccccc1NC(=O)Cc1nnc(SCC(=O)N2CCN(c3ccccc3)CC2)n1C	-8%	-17%&-17%	0.5%	3%	5%	0%	-4%	u
COc1ccc(OC)c2[nH]c(=O)c(CCNC(=O)c3ccc(S(=O)(=O)N4CCCC4)cc3)cc12	-23%	u	-1.2%	13%	u	u	-41%	1%
Cc1cccnc1NC(=O)c1ccc(COc2ccccc2)o1	x	x	x	2%	x	4%	-4%	4%
CCOC(=O)Cn1c(=O)oc2cc(S(=O)(=O)Nc3ccc(F)cc3)ccc21	x	x	3.9%	2%	-5%	16%	2%	6%
N#Cc1sc2nc(-c3cccs3)cc(-c3ccc(Cl)cc3)c2c1N	-4%	u	1.2%	1%	13µM*	7%	5%	-4%
Cc1ccc2[nH]c(=O)c(CN(Cc3cccs3)C(=S)NCc3ccco3)cc2c1	u	u	-7.2%	1%	-1%	0%	11%	-27%
Cc1cccc(S(=O)(=O)Nc2ccc(-n3c(C)nc4ccccc4c3=O)cc2)c1	0%	-14%	x	0%	x	12%	x	2%
COc1ccc(NC(=S)N2CCC(C(=O)N3CCCCCC3)CC2)cc1	-17%	6%	2.3%	-11%	-5%	x	-2%	6%

Not a hit list; about 4.7% have a hit in one of these screens.
